MgrA DNA FP: modulators of Staphylococcus aureus MgrA DNA binding; fluorescence polarization; inhibition, %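 (about 10 µg/mL by stock and volumes)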; actives 0.13% (n = 84,000); AID 602314;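 active means above 50% in either of two replicates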;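 further: 0% = protein plus DNA without compound and 100% = DNA alone without protein; higher means less MgrA bound to DNA so lower polarization; one replicate is shown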
Sa helicase inh: blocks Staphylococcus aureus DNA helicase | purified S. aureus helicase, fluorescence unwinding assay; about half of the hits fall short of the stated cut | inhibition, %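 (tested at about 80 µM)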 | actives 0.05% (n = 120,000);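 active means both duplicates at 50% or more, or one of them with a favoured structure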;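 further: 0% = mean of negative control wells and 100% = mean of positive control wells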
Numbers without * were called inactive; x = not tested or not shown.

SMILES | MgrA DNA FP | Sa helicase inh
Cc1cc(C)c(-c2cc(NC(=O)CN3CCCC(C(N)=O)C3)n(-c3ccccc3)n2)cc1C (stereo not drawn) | x | -8.0
Cn1c(=O)c2c(nc(OCc3ccccc3)n2C)n(C)c1=O | x | -2.0
O=C1c2ccccc2C(=O)N1CN1CCCCC1 | 2.2 | 6.0
CNS(=O)(=O)c1ccc(SC)cc1 | -0.2 | 0.0
CC1CC(=O)NN=C1c1ccc2c(c1)nnn2O (stereo not drawn) | x | -4.0
O=C(CSC1=NS(=O)(=O)c2cc(F)ccc2N1)NC1CCCC1 | x | 5.0
O=C(O)c1ccc2nccnc2c1 | -5.2 | 4.0
CCOc1cc(NC(=S)NCCCN2CCOCC2)c(OCC)cc1NC(=O)C1CC1 | -0.6 | 1.0
COC(=O)c1ccc2c(=O)n3nc(N)sc3nc2c1 | 0.2 | -16.0
Cc1[nH]c2ccccc2c1C(c1ccncc1)N1CCCC1 (stereo not drawn) | x | -10.0
O=C(CCN1C(=O)C2CC=CCC2C1=O)Nc1cc(C(F)(F)F)ccc1-n1cncn1 (stereo not drawn) | x | -12.0
CCOc1ccc(C(C)NC(=O)c2cccnc2OCC)cc1OCC (stereo not drawn) | x | 11.0
COC(=O)c1ccc(OCC(O)Cn2cc(/C=N/O)c3ccccc32)cc1 (stereo not drawn) | x | 4.0
Cc1cc(N2CCOCC2)ccc1/C=c1\sc2nc3ccccc3n2c1=O | 3.3 | 0.0
Cc1cc(C)c(NC(=O)C2COc3ccccc3O2)c(C)c1 (stereo not drawn) | x | 7.0
N#Cc1ccc(OCC(=O)NCCCN2CCCC2=O)cc1 | x | -10.0
COc1ccc(C(=O)OCC(=O)NCc2ccccc2)cc1 | x | 10.0
NS(=O)(=O)c1ccc2c(c1)C1C=CCC1C(C1CC=CCC1)N2 (stereo not drawn) | 5.9 | 9.0
Cn1c(SCc2ccccc2)nnc1-c1ccc2ncccc2c1 | -2.6 | x
COCCN(Cc1nc2ccccc2c(=O)[nH]1)C(=O)c1cn2c(C)cccc2n1 | x | 12.0
Cc1c(CCNC2=CC(=O)OC23CCCCC3)c2ccccc2n1C | 4.8 | 9.0
COc1ccc(NC(=O)c2cccs2)cn1 | 0.2 | x
NNC(=O)CNc1nc2ccccc2s1 | x | 0.0
CC(=O)Nc1ccc(-n2nncc2-c2ccco2)cc1 | x | 4.0
Nc1ncccc1OCc1ccccc1 | 2.4 | x
CC(=O)ON1C(=O)c2cccc3cccc(c23)C1=O | 7.2 | x
O=S1(=O)CC(NCc2ccccc2)C(Nc2ccc(Cl)cc2)C1 (stereo not drawn) | x | 13.0
S=c1oc2ccc(Cl)cc2n1Cc1ccccc1 | 1.3 | x
O=C1NC2(O)/C(=N/NC(=O)c3ccccc3O)c3ccccc3C2(O)N1 (stereo not drawn) | x | -36.0
O=C1c2ccccc2C(=O)N1CCCCSc1nnnn1-c1ccccc1 | x | 13.0
COC(=O)c1cc(S(=O)(=O)N2c3ccccc3CC2C)cn1C (stereo not drawn) | 0.9 | 20.0
CC(Sc1nc2c(c(=O)[nH]1)CCCC2)C(=O)Nc1ccc(Cl)cc1 (stereo not drawn) | -3.4 | 1.0
CCOc1cc(-n2cccc2)c(OCC)cc1N1CCOCC1 | 3.2 | x
CCSCCOC(=O)C1=C(C)NC2=C(C(=O)CC(C)(C)C2)C1c1coc2ccc(C)cc2c1=O (stereo not drawn) | -0.6 | x
NC(=O)c1cccc(N)c1 | -0.1 | x
Cc1cc(C)cc(NS(=O)(=O)c2ccc(NC(=O)C3CCCCC3C(=O)O)cc2)c1 (stereo not drawn) | x | -2.0
COc1ccc(-c2nnc(SCC3COc4ccccc4O3)o2)cc1 (stereo not drawn) | x | 4.0
Cn1cnc(S(=O)(=O)N2CCN(c3ccc(F)cc3)CC2)c1 | -1.1 | x
COC(=O)c1c[nH]c(=O)c2ccccc12 | 0.2 | x
Cc1cc(C(=O)O)sc1C | x | 5.0
C=CCn1c(CCNC(=O)c2ccccc2)nc2ccccc21 | x | -10.0
CCCN(Cc1nnc(-c2ccccc2Cl)o1)C(=O)C1(c2ccccc2)CC1 | x | -8.0
COc1ccc(S(=O)(=O)N2CCN(C(=O)c3cccs3)CC2)cc1OC | -0.9 | 0.0
O=C(O)c1ccccc1C(=O)Nc1ccc(OC(F)F)cc1 | x | -10.0
CC(=O)Nc1sccc1C(N)=O | x | 3.0
O=c1c2nnn(Cc3ccccc3)c2ncn1C/C=C/c1ccccc1 | x | 6.0
COc1ccc(CC(=O)Sc2nc3ccccc3s2)cc1 | -1.7 | 6.0
c1nnnn1C12CC3CC(CC(C3)C1)C2 | 1.4 | 3.0
CC(C)c1nccn1-c1ccc(N)cc1 | 0.3 | -15.0
O=C(NCc1ccccn1)c1ccc2c(c1)N(Cc1ccccc1)CCS2 | x | 8.0
O=C(NCc1ccccc1)C1CCCN(S(=O)(=O)N2CCCCCC2)C1 (stereo not drawn) | 0.3 | -5.0
CCC(CC)NC(=O)c1cc(=O)c2ccccc2o1 | x | -15.0
Cc1nccc2[nH]c(=O)c(C(=O)NCCCN3CCC(Cc4ccccc4)CC3)cc12 | -1.2 | 6.0
O=C(O)CC(CC(=O)O)c1ccc(Cl)cc1 | 0.6 | x
CCC(=O)Nc1cccc(C2=NN(C(C)=O)C(c3ccc(F)cc3)O2)c1 (stereo not drawn) | x | 8.0
Clc1ccc(C2=CSC3=NCCN23)cc1 | -4.1 | x
CCCNC(=O)c1sc2c(c1C(=O)Nc1ccccn1)CCCC2 | 4.4 | 5.0
COc1ccc(-c2nc(O)c3cnccn23)cc1 | x | 11.0
CCCn1c(=O)c(C#N)cn(-c2ccc(Cl)cc2)c1=O | 0.3 | x
O=C(O)Cc1ccc(OCc2ccccc2)cc1 | -1.5 | x

3 compounds out of the list, arranged by heavy-atom count, low to high:
SMILES | MgrA DNA FP | Sa helicase inh
COC(=O)c1c[nH]c(=O)c2ccccc12 | 0.2 | x
COC(=O)c1cc(S(=O)(=O)N2c3ccccc3CC2C)cn1C (stereo not drawn) | 0.9 | 20.0
O=C(CCN1C(=O)C2CC=CCC2C1=O)Nc1cc(C(F)(F)F)ccc1-n1cncn1 (stereo not drawn) | x | -12.0

More compounds follow.
SMILES | MgrA DNA FP | Sa helicase inh
O=c1c2cc(-c3ccccc3)sc2ncn1Cc1ccc(F)cc1 | -2.1 | x
Cc1ccc(N2C(=O)N(Cc3cccnc3)c3ccccc3S2(=O)=O)cc1F | x | -2.0
Cc1cccc(C(=O)N(c2ccccn2)C(C)c2ccco2)c1 (stereo not drawn) | 1.6 | -22.0
O=C(NC1CCCC1)C1CC(=O)N(CCc2ccccc2)C1 (stereo not drawn) | -0.9 | 3.0
CC(=O)Nc1ccc(C2=CSC3=NCCN23)cc1 | -1.1 | 23.0
O=C(CSc1nnc(-c2cccs2)n1C1CC1)N1CCCC1c1ccc2c(c1)OCCCO2 (stereo not drawn) | x | 14.0
CCOC(=O)C1=C(C)N=c2s/c(=C\c3cc4c(cc3Br)OCO4)c(=O)n2C1c1ccccc1 (stereo not drawn) | -1.0 | x
S=c1n(CN(Cc2ccccc2)Cc2ccccc2)nnn1-c1ccccc1 | 0.0 | 8.0
CCn1c(CNC(=O)c2ccc(Cl)cc2)nnc1SCC(=O)NC1=NCCS1 | -2.4 | 7.0
COc1cc(/C=C2\C(=O)NC(=O)N(c3ccc(C(C)(C)C)cc3)C2=O)ccc1OCC(=O)O | 7.9 | x
O=C(O[C@@H]1C[C@H]2C(=O)N[C@@H](Cc3ccccc3)C(=O)N2C1)c1ccccc1 | 2.1 | -15.0
NC(=O)CSc1nnc(Nc2ccccc2)s1 | x | -13.0
COc1ccccc1-c1c(C#N)c(N)nc(SSc2nc(N)c(C#N)c(-c3ccccc3OC)c2C#N)c1C#N | x | 23.0
O=C(c1ccccc1)C(Sc1nnc(-c2ccco2)o1)c1ccccc1 (stereo not drawn) | x | 0.0
COCCn1c(-c2ccncc2)nn(CN2CC(C)OC(C)C2)c1=S (stereo not drawn) | x | 11.0
Cc1ccc(C(CNC(=O)C(C)C)N2CCN(C)CC2)cc1 (stereo not drawn) | x | 10.0
CCOC(=O)c1cnc2ccc(C(=O)OC)cc2c1N1CC2(C)CC1CC(C)(C)C2 (stereo not drawn) | 1.7 | -9.0
O=C1NC(=O)/C(=C/c2cccc(OC(=O)c3ccco3)c2)S1 | x | 22.0
CN1/C(=C\C(=O)COC(=O)c2cccnc2)C(C)(C)c2ccccc21 | x | 8.0
CCOc1ccc(Oc2nnc(C)c3ccccc23)cc1 | x | -4.0
Cc1cccc(-n2c(N)cc(=O)[nH]c2=S)c1 | 2.3 | 14.0
CSc1ccccc1C(=O)N1CCSCC1 | -2.0 | x
COCCN(Cc1nc2ccccc2c(=O)[nH]1)C(=O)c1ccc(C)s1 | x | -6.0
CCCn1c(N)c(C(=O)CN2CCCc3ccccc32)c(=O)n(C)c1=O | x | -9.0
CC(Cc1ccco1)NC(=O)c1ccc(NC(=O)C2=CSCCO2)cc1 (stereo not drawn) | x | 1.0
Nc1nc(SC/C=C/c2ccccc2)nc2sc3c(c12)CCCC3 | 2.0 | -5.0
O=C(OCc1ccccc1F)c1ccc2c(c1)OCCO2 | x | 8.0
CCSC1=NC2(CCN(S(C)(=O)=O)CC2)N=C1c1ccccc1 | x | 8.0
CCOC(=O)C1=C(CN(C)Cc2ccc(C)cc2)NC(=O)NC1CC (stereo not drawn) | x | -14.0
Cc1ccccc1N1C(=O)CSCC1=O | 0.7 | x
N#Cc1c(-n2cccc2)sc2c1CCN(c1cccc(F)n1)C2 | 1.1 | x
CC[N+](CC)(CC)Cc1ccccc1 | -1.6 | 18.0
O=C(CCCn1nc(-c2ccccc2)c2ccccc21)NCC1CCCO1 (stereo not drawn) | x | 6.0
COc1ccc(NC(=O)CNNc2ccc(S(N)(=O)=O)cc2)cc1 | x | 5.0
N#CC(C#N)CC(=O)c1ccccc1 | 5.0 | x
c1ccc(OCc2nc3c4c5c(sc4ncn3n2)CCCC5)cc1 | 3.5 | 3.0
Cn1c(Cn2cnc3ccccc32)nnc1SCC(=O)CC(=O)Nc1ccccc1 | -0.2 | 3.0
Nc1c(Br)cc2oc(-c3ccccc3F)nc2c1Br | -0.7 | -1.0
Cc1ccc(-n2c(C)cc(C(=O)COC(=O)c3ccco3)c2C)cc1 | x | -2.0
Cc1cc(=O)[nH]c(=S)[nH]1 | 2.3 | 9.0
C=CCNC(=O)c1c(N)n(CCc2ccccc2F)c2nc3ccccc3nc12 | 1.4 | -3.0
CCn1c(CCCNC(=O)c2cccs2)nc2ccccc21 | x | -11.0
O=C(O)c1ccccc1OC(F)F | x | -10.0
Cc1ccc(S(=O)(=O)Nc2c(C)ccc3nsnc23)cc1 | x | 34.0
COC(=O)c1ccccc1NC(=O)CS(=O)(=O)c1nnnn1-c1cccc2ccccc12 | -0.4 | 11.0
O=C(O)c1c(F)c(F)cc2ccccc12 | -1.0 | 6.0
COc1cc(C(=O)NCc2nc3ccccc3[nH]2)cc(OC)c1OC | x | 26.0
CCOC(=O)Cc1csc(SCC2=C(C(=O)OCC)C(C)NC(=O)N2)n1 (stereo not drawn) | x | -10.0
CSC1=NC(c2ccc(N(C)C)cc2)NN1 (stereo not drawn) | -1.6 | x
Cc1ccc(C(=O)Oc2ccc3c(c2)ncn3C)cc1 | 1.8 | -27.0
O=C(CCCN1C(=O)c2cccnc2Sc2ccccc21)NC1CCCC1 | x | 5.0
CC(=O)Nc1ccc(Oc2ccc(S(=O)(=O)N3CCCC3)cn2)cc1 | x | -18.0
COc1ccc(N2C(=O)CCC(C(=O)NC3=NCCS3)C2c2ccccc2)cc1 (stereo not drawn) | x | 3.0
Cc1ccc(OC(=O)CSc2nnc(-c3ccco3)n2-c2ccccc2)cc1 | 0.3 | 8.0
Cn1c(C(=O)N2CCN(Cc3ccccc3)CC2)cc2c(=O)n(C)c3ccccc3c21 | -3.5 | 4.0
O=c1c2cccnc2n(Cc2ccccc2F)c(=O)n1C1CCCCC1 | x | -16.0
CC1S/C(=C\C#N)NC1=O (stereo not drawn) | x | -12.0
Cc1ccc(NC(=O)NC2CCN(C)CC2)cc1Cl | 3.6 | 20.0
O=C1c2ccccc2C(=O)N1CCN1C(=O)c2ccccc2C1=O | -1.3 | 11.0
O=C(C1CCC(Cn2c(=S)[nH]c3ccccc3c2=O)CC1)N1CCN(c2ccc(Cl)cc2)CC1 (stereo not drawn) | 1.1 | 8.0
COc1ccc(S(=O)(=O)N(CC(=O)NC2CC2)Cc2ccccc2)cc1 | x | 24.0

Grouped by structure: those above containing an aryl thioether with sulfur outside any ring
SMILES | MgrA DNA FP | Sa helicase inh
CNS(=O)(=O)c1ccc(SC)cc1 | -0.2 | 0.0
Cn1c(SCc2ccccc2)nnc1-c1ccc2ncccc2c1 | -2.6 | x
O=C1c2ccccc2C(=O)N1CCCCSc1nnnn1-c1ccccc1 | x | 13.0
CC(Sc1nc2c(c(=O)[nH]1)CCCC2)C(=O)Nc1ccc(Cl)cc1 (stereo not drawn) | -3.4 | 1.0
COc1ccc(-c2nnc(SCC3COc4ccccc4O3)o2)cc1 (stereo not drawn) | x | 4.0
O=C(CSc1nnc(-c2cccs2)n1C1CC1)N1CCCC1c1ccc2c(c1)OCCCO2 (stereo not drawn) | x | 14.0
CCn1c(CNC(=O)c2ccc(Cl)cc2)nnc1SCC(=O)NC1=NCCS1 | -2.4 | 7.0
NC(=O)CSc1nnc(Nc2ccccc2)s1 | x | -13.0
O=C(c1ccccc1)C(Sc1nnc(-c2ccco2)o1)c1ccccc1 (stereo not drawn) | x | 0.0
CSc1ccccc1C(=O)N1CCSCC1 | -2.0 | x
Nc1nc(SC/C=C/c2ccccc2)nc2sc3c(c12)CCCC3 | 2.0 | -5.0
Cn1c(Cn2cnc3ccccc32)nnc1SCC(=O)CC(=O)Nc1ccccc1 | -0.2 | 3.0
CCOC(=O)Cc1csc(SCC2=C(C(=O)OCC)C(C)NC(=O)N2)n1 (stereo not drawn) | x | -10.0
Cc1ccc(OC(=O)CSc2nnc(-c3ccco3)n2-c2ccccc2)cc1 | 0.3 | 8.0

Assay outcomes as filed in PubChem BioAssay.

Not all compounds are listed; the hit share may differ from the screen's.
